KCNQ2 inh – KCNQ2 potassium channel inhibitors, primary screen, cell-based, CHO-K1, FluxOR thallium flux, B-score (AID 2156) | 20 min; active compounds read low; only compounds with negative scores are shown here; some inactives read as strong as hits | B-score at 10 µM | 310,000 tested, 1.1% active;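 active means fluorescence ratio B-score at most minus 3 library SDs, with starting brightness B-score within 2 library SDs, cut at about -5.5 in these data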
Target sequence (O88943 whole entry, looked up): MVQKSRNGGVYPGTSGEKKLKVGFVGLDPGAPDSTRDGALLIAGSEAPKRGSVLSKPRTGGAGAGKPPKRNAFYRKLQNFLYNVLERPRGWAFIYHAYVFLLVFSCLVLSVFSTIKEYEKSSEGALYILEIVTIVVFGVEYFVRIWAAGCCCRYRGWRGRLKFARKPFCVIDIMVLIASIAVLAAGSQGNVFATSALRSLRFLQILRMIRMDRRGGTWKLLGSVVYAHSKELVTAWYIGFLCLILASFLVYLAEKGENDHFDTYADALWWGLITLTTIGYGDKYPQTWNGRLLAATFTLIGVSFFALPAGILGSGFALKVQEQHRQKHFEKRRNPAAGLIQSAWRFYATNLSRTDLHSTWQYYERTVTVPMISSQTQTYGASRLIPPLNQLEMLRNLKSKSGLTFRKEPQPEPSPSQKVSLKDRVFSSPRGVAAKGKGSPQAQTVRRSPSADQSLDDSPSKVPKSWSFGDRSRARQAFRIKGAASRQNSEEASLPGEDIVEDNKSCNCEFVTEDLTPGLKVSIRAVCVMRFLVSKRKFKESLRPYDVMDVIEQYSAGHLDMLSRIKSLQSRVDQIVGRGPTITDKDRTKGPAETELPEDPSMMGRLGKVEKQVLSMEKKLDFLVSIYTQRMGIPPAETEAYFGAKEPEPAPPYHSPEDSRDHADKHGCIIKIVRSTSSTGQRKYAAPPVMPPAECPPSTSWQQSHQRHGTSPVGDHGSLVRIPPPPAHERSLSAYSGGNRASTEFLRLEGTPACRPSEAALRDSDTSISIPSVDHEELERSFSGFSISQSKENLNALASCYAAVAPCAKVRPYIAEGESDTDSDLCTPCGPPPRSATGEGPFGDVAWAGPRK
KCNQ2 inh baseline – further read-out of KCNQ2 inh, marked with its call; B-score; measured here: initial fluorescence intensity artifact check;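 brightness before thallium and not channel activity; 0 = typical well and far values either way flag optical interference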
Numbers without * were called inactive; i = inactive; & = joins results of further samples.

SMILES	KCNQ2 inh	KCNQ2 inh baseline
C[C@H](NC(=O)[C@H]1N2C(=O)c3ccccc3C2SC1(C)C)C(=O)N1CCC[C@H]1CO (some centres not stated)	i	0.06
O=C(CSc1ncn[nH]1)Nc1ccccc1C(=O)O	i	0.59
Cc1ccc(-c2nc(NC(=O)CSc3cc(C)c4ccccc4n3)ns2)cc1	i	0.53
CNC(=O)Nc1ccc(Cn2cc(C(F)(F)F)ccc2=O)cc1	i	-1.89
CC(C)CCNC(=O)c1csc2c1CCCCC2	i	0.95
CC(=O)N1CCN(CCN2C(C)=CC(=C(C#N)C#N)C=C2C)CC1	i	0.98
CN(C(=O)CN1CCN(c2ccccc2F)CC1)C1CCCc2ccccc21 (configuration not stated)	i	0.38
Cc1csc(-c2cccnc2)n1	i	1.3
COc1ccc(C(C)=O)cc1COc1ccc(F)cc1	i	-3.02
CCOc1ccccc1CNC(=O)CN1C(=O)CSc2ccc(S(=O)(=O)N3CCOCC3)cc21	i	0.05
CCOc1ccc(Oc2ccc(S(=O)(=O)N3CCOCC3)cc2NC(=O)C2=COCCO2)cc1	i	0.79
CC(=O)c1ccc(OCc2cc(C(=O)NC(C)Cc3ccccn3)no2)cc1 (configuration not stated)	i	2.19
CSc1cccc(NC(=O)CSc2ncccc2C(=O)Oc2cccc([N+](=O)[O-])c2)c1	i	-0.09
CCOc1ccccc1NS(=O)(=O)c1c(C)[nH]c(C)c1C(=O)N1CCCCC1	i	1.19
CCCCCC(=O)NNC(=S)NC(C)=O	i	1.05
CCN1CCN(C(=O)c2cc(-c3cccnc3)nc3ccc(Br)cc23)CC1	-8.31*	-4.28*
Nc1nc(-c2ccc(Cl)cc2Cl)cn1N	i	0.65
Cc1cccc(N2CCN(C(=O)c3ccc4c(c3)OCCO4)CC2C)c1 (configuration not stated)	i	3.24
O=C1NNC(c2ccccc2)=N/C1=C\c1ccco1	i	0.11
O=C(NCCCn1ccnc1)c1cc(-c2ccc3c(c2)OCO3)on1	i	1.55
Cc1ccccc1NC(=O)CN1CCC(C(=O)c2ccc3c(c2)OCCO3)CC1	i	0.23
O=C(Nc1ccc(Cl)cc1)Nc1nnc(/C=C/c2ccccc2)s1	i	-0.26
Cc1cc(C(=O)N/N=C/c2c(C)n(C)c3ccccc23)n[nH]1	i	0.02
COCCNC(=O)CCCCCN1C(=O)CCC1=O	i	3.15
CCN(CC)CCOc1ccc(/C(=C(/Cl)c2ccccc2)c2ccccc2)cc1	i	0.35&-2.57
COc1ccccc1Oc1ccc(S(=O)(=O)Nc2cccnc2)cc1	i	1.83
CCc1c(C)nc(SCC(=O)N2CCc3ccccc32)[nH]c1=O	i	0.69
CC1(C)CC(Nc2ccc(Nc3ccccc3)cc2)CC(C)(C)N1	i	0.27
COc1cccc(/C=N/NC(=O)c2c(-c3ccccc3)noc2C)c1O	i	0.69
N#CCCn1c(C2CCCCC2)nc2ccccc21	i	-0.09
CCOc1ccc(NC(=O)N2CCC(c3ccc(C)cc3)C2)cc1 (configuration not stated)	i	-0.66
COc1ccc(C(C)NC(=O)c2ccncc2)cc1 (configuration not stated)	i	-0.55
Cc1ccnn1CCC(=O)O	i	2.13
CCCCCN1CN(S(=O)(=O)c2cccs2)c2nc3ccccc3nc21	i	-0.52
CC(C)CNC(=O)COC(=O)c1cncc(Br)c1	i	-2.51
O=C(NN=C1CCCCCC1)c1cc(-c2ccccc2)nc2ccccc12	i	-0.93

Taken from above:
`COc1ccccc1Oc1ccc(S(=O)(=O)Nc2cccnc2)cc1` @ KCNQ2 inh baseline: 1.83
`CCOc1ccc(NC(=O)N2CCC(c3ccc(C)cc3)C2)cc1` (configuration not stated) @ KCNQ2 inh baseline: -0.66
`CC(C)CCNC(=O)c1csc2c1CCCCC2` @ KCNQ2 inh baseline: 0.95

Among those listed so far, these contain bromine.
SMILES	KCNQ2 inh	KCNQ2 inh baseline
CCN1CCN(C(=O)c2cc(-c3cccnc3)nc3ccc(Br)cc23)CC1	-8.31*	-4.28*
CC(C)CNC(=O)COC(=O)c1cncc(Br)c1	i	-2.51

New compounds follow:
SMILES	KCNQ2 inh	KCNQ2 inh baseline
CCN(CC)N=Nc1ccc(S(=O)(=O)N2CCSC2C(=O)O)cc1 (configuration not stated)	i	0.4
Cc1nc(N2CCN(C(=O)CCC(=O)O)CC2)c2c(C)c(C)sc2n1	i	0.73
CCn1nccc1C(=O)Nc1cc(Cl)cc(Cl)c1	i	0.78
O=C1CC(c2ccc(F)cc2)CC2=C1C(c1ccc([N+](=O)[O-])o1)Nc1ccccc1N2 (configuration not stated)	i	-1.28
CCCOc1cccc(C(=O)Nc2ccc(CN3CCOCC3)cc2)c1	i	-1.48
Cc1cc(C)cc(OC(C)C(=O)Nc2ccc(S(=O)(=O)Nc3cc(C)nc(C)n3)cc2)c1 (configuration not stated)	i	1.55
O=C(NCc1ccco1)c1ccc(Cn2c(=S)[nH]c3ccccc3c2=O)cc1	i	1.11
COC(=O)c1cc(NS(=O)(=O)c2ccc(Cl)c(N3C(=O)c4ccc(C(=O)O)cc4C3=O)c2)cc(C(=O)OC)c1	i	1.45
COc1ccc(N(CC(=O)N2CCN(C)CC2)S(C)(=O)=O)cc1OC	i	0.37
COc1cc(OC)c2c(C)cc(=O)oc2c1C(CCN1CCOCC1)c1ccc2c(c1)OCO2 (configuration not stated)	i	2.01
CCOc1ccccc1CNS(=O)(=O)c1ccc(-c2cnc(C3CC3)o2)cc1	i	0.04
CCC(Oc1ccccc1)C(=O)Nc1nnc(S(=O)(=O)N2CCCC2)s1 (configuration not stated)	i	-0.05
CCN(CC)S(=O)(=O)c1ccc(OC)c(NC(=O)C2CC(=O)N(c3ccc4c(c3)OCCO4)C2)c1 (configuration not stated)	i	-1.44
CC(=O)N1c2ccc(S(=O)(=O)N3CCCCC3)cc2CC1C (configuration not stated)	i	0.34
O=C1c2ccccc2C(O)(Cc2ccccc2)N1C1CCCCC1 (configuration not stated)	i	1.87
COc1ccc(-n2ncc3c2CC(C)(C)CC3NC(=O)CSc2ccccn2)cc1 (configuration not stated)	i	-0.39
CC(=O)c1nn(-c2ccccc2)cc1C(=O)c1cccc(Br)c1	i	0.21
CCOc1ccc(NC(=O)Nc2cc(C(C)C)ccc2C)cc1	i	0.17
COc1cc(OC)c2cc(C(=O)N[C@H](C(=O)N3CCC[C@H]3C(=O)O)C(C)C)n(C)c2c1	i	0.07
Cc1cc(=O)oc2cc(OCC(=O)NC(Cc3c[nH]c4ccc(O)cc34)C(=O)O)c(Cl)cc12 (configuration not stated)	i	0.88
COc1ccc(CNC(=O)C2CCC(=O)N(CCCN3CCCC3=O)C2)c(OC)c1 (configuration not stated)	i	-0.11
COc1ccc(NC(=O)CCN2CCN(S(=O)(=O)c3ccc(F)cc3)CC2)cc1	i	-0.99
CCOc1ccccc1CNC(=O)c1cn(C)c(=O)c2c1c1ccccc1n2C	i	-0.57
Cc1cccc(N2C(=O)CN(Cc3ccccc3)C2=S)c1	i	2.59
COc1ccc(-n2c(=O)c3ccccc3n(Cc3cccc(C)c3)c2=O)cc1OC	i	0.45
O=C(c1cc(COc2ccc(F)cc2F)on1)N1CCN(C2CCCC2)C(=O)C1	i	-0.45
COc1ccc(-n2cnnc2SC(C)c2nc3sc(C)c(C)c3c(=O)[nH]2)cc1 (configuration not stated)	i	-0.04
CCOC(=O)c1c(NC(=O)CSc2nnc(-c3cccnc3)n2Cc2ccco2)sc(C)c1C	i	-1.17
Cc1cc([N+](=O)[O-])cc2c1NC(c1ccccn1)C1CC=CC21 (configuration not stated)	i	-1.33
COc1cccc(/C=N/NC(=O)CSc2nnc(C)n2-c2ccccc2)c1O	i	-0.6
Cc1ccc(CNC(=O)CO/N=C/c2ccc3c(c2)OCO3)cc1	i	1.89
O=C(COC(=O)CCc1ccc(S(=O)(=O)N2CCOCC2)cc1)Nc1cccc(Cl)c1	i	1.88
Cc1ccnc(SCC(=O)Nc2cc(C)on2)n1	i	0.42
O=C1CCCCN1CC(=O)N1CCCC(Nc2ccc(F)c(F)c2)C1 (configuration not stated)	i	-0.07
COc1cccc(Oc2nnnn2-c2ccccc2)c1	i	0.66
CCn1cc(CN2CCN(Cc3ccc(C)o3)C(CCO)C2)c2ccccc21 (configuration not stated)	i	0.14

Reformatted: results already given
smiles | KCNQ2 inh | KCNQ2 inh baseline
COc1cccc(Oc2nnnn2-c2ccccc2)c1 | i | 0.66
O=C(COC(=O)CCc1ccc(S(=O)(=O)N2CCOCC2)cc1)Nc1cccc(Cl)c1 | i | 1.88
COc1cccc(/C=N/NC(=O)CSc2nnc(C)n2-c2ccccc2)c1O | i | -0.6
O=C1CCCCN1CC(=O)N1CCCC(Nc2ccc(F)c(F)c2)C1 (configuration not stated) | i | -0.07
COc1ccc(-n2c(=O)c3ccccc3n(Cc3cccc(C)c3)c2=O)cc1OC | i | 0.45
Cc1cc([N+](=O)[O-])cc2c1NC(c1ccccn1)C1CC=CC21 (configuration not stated) | i | -1.33
O=C(c1cc(COc2ccc(F)cc2F)on1)N1CCN(C2CCCC2)C(=O)C1 | i | -0.45

(further entries)
SMILES	KCNQ2 inh	KCNQ2 inh baseline
CCOc1cc(/C=C2\COc3ccccc3C2=O)cc(Br)c1OCC(=O)N(C)C	i	-1.45
COc1ccc(NC(=O)C(CCCCNC(=O)OC(C)(C)C)NC(=O)OCc2ccccc2)cc1 (configuration not stated)	i	-0.64
CC(C)(C)NC(=O)NC(=O)COC(=O)Cn1cnc2ccccc2c1=O	i	1.94
CNc1ncc(C(=O)c2ccccc2)s1	i	-0.98
Cc1ccc(-c2nnc(SCc3ccccc3F)o2)cc1	i	1.03
CC(C)C[C@H](NC(=O)N1CCn2c1nc1ccccc12)C(=O)N[C@@H](C(=O)O)c1ccccc1	i	-0.04
Cc1c(C(c2ccccc2O)c2c(C)n(C)n(-c3ccccc3)c2=O)c(=O)n(-c2ccccc2)n1C	i	0.12
O=C(CN(Cc1ccc(Cl)cc1)S(=O)(=O)c1ccccc1)NCC1CCCO1 (configuration not stated)	i	0.89
O=C(Cc1nn[nH]n1)Nc1cc(Cl)cc(Cl)c1	i	0.67
CC(C)N(CCNC(=O)C1CCC(=O)N1Cc1ccc(F)cc1)Cc1ccccc1 (configuration not stated)	i	0.74
CC(C)(C)c1ccc(OCCC(=O)Nc2cccc(S(=O)(=O)N3CCCCC3)c2)cc1	i	0.29
CN(C)S(=O)(=O)c1ccc(C(=O)NCCOc2ccccc2)cc1	i	-0.58

2 neighbouring entries from above, quoted:
SMILES	KCNQ2 inh	KCNQ2 inh baseline
CCOc1cc(/C=C2\COc3ccccc3C2=O)cc(Br)c1OCC(=O)N(C)C	i	-1.45
COc1ccc(NC(=O)C(CCCCNC(=O)OC(C)(C)C)NC(=O)OCc2ccccc2)cc1 (configuration not stated)	i	-0.64

Next section:
SMILES	KCNQ2 inh	KCNQ2 inh baseline
CCCCNC(=O)CCC(=O)Nc1ccc2nc(N3CCC(C)CC3)cc(C)c2c1	i	0.11
COc1ccc(CCCc2nnc(SCC(=O)NN)o2)cc1	i	-0.82
O=C(Nc1cc(C(=O)N2CCN(c3ccccc3O)CC2)ccc1Cl)c1cccs1	i	-0.46
CC(=O)Nc1ccc(N2CCOCC2)c(Cl)c1	i	-1.02
O=C(c1cc(-c2ccc(Br)cc2)on1)N1CCCCCC1	i	-0.46
OC(COc1ccccc1Cl)CN1CCN(CC(O)COc2ccccc2Cl)CC1 (configuration not stated)	i	0.03
Cc1cc(/C=C(/C#N)C(=O)Nc2ccc(Cl)cc2)c(C)n1-c1cccnc1	i	0.12
CCS(=O)(=O)N1CCCC(C(=O)NCCc2ccc(OC)c(OC)c2)C1 (configuration not stated)	i	-0.48
COc1ccc(CNC(=O)CN(C)Cc2ccccc2F)cc1OC	i	-0.13
C=CCNC(=O)c1ccccc1NC(=O)Cc1ccccc1[N+](=O)[O-]	i	0.08
CCc1ccc(C2=NN(C(C)=O)C(c3ccco3)C2)cc1 (configuration not stated)	i	0.14
CCOC(=O)c1ccc(N2CCOCC2)c(NS(=O)(=O)c2ccc(F)cc2)c1	i	0.15
NC(=O)c1ccc(NC(=O)Cc2cccs2)cc1	i	1.21
COc1ccc(C(=O)Nc2c(N)nc(SCC(=O)N3CCC(C)CC3)[nH]c2=O)cc1	i	-0.45
CCN(CCNC(=O)c1ccc(C#N)cc1)c1cccc(C)c1	i	-1.66
Cc1nc2c(=O)n(C)c(=O)[nH]c2n1Cc1ccccc1	i	-1.38
CCOC(=O)c1ccc[n+](CC(=O)c2ccc(NC(=O)c3ccccc3)cc2)c1	i	-2.11
Cc1ccc(S(=O)(=O)N(C(=O)c2ccco2)c2cc3sc(=O)oc3c3ccccc23)cc1	i	-0.63
COc1ccc(C(=O)CCN2CCN(c3ccccc3OC)CC2)cc1	i	1.2
CCc1ccc(N(C(C)=O)C2C=CS(=O)(=O)C2)cc1 (configuration not stated)	i	4.11
COc1ccc(CCN2CC(C(=O)NCCN3CCOC3=O)CCC2=O)cc1 (configuration not stated)	i	-2.35
COc1ccc(-c2csc(NC(C)c3nc4cc(Cl)c(Cl)cc4n3CCOCCO)n2)cc1 (configuration not stated)	i	-0.56
CCN(CC)S(=O)(=O)c1ccc(OC)c(NS(=O)(=O)c2cccc(C(=O)O)c2)c1	i	-0.36
O=C(CSc1nnc2n1CCCN2)c1ccc([N+](=O)[O-])cc1	i	-0.03
COc1ccccc1N1CCN(C(=O)/C=C/c2ccc(C)cc2)CC1	i	1.79
NS(=O)(=O)c1cccc(C(=O)NC2CCSc3ccccc32)c1 (configuration not stated)	i	2.74
COC(=O)[C@H](Cc1ccccc1)NC(=O)N1CCCCC1C (some centres not stated)	i	-0.69
Cc1c(/C=N\NC(=O)C2COc3ccccc3O2)c2ccccc2n1C (configuration not stated)	i	-0.92
CCN(CC)S(=O)(=O)c1ccc(NC(=O)CN(c2cccc(C)c2)S(C)(=O)=O)cc1	i	-1.43
COc1ccccc1CNC(=O)CCNS(=O)(=O)c1cccc2nsnc12	i	0.05
COC(=O)c1ccc(S(=O)(=O)N2CCC(O)CC2)n1C	i	-0.06
Cc1ccc(S(=O)(=O)N2CCC(N3CCC(C)CC3)CC2)cc1	i	-0.14
CCN1C(=O)/C(=C\c2nc3ccccc3c(=O)n2-c2ccccc2)c2ccccc21	i	-1.63

Screening data: PubChem, Johns Hopkins Ion Channel Center

Only part of the results is shown (hit frequency here may not be typical).
